From PubChem BioAssay
Biofilm kill mix – clotrimazole potentiators killing C. albicans biofilm, primary screen, 4-compound mixtures. C. albicans biofilm persisters + clotrimazole, fluorescence viability; primary screen in compound mixtures of four per well. inhibition, % at 7.6 µM. hit rate 0.02% among 120,000. AID 1242, 2008;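 active = inhibition above 30.3% in the primary screen of four-compound pools, then above 30% when the compound was retested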;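 note: compounds exposed to preformed 24 h biofilms for 48 h; the number belongs to the whole pool; some results filed as inactive read as strong as hits; inactives centre near 12; 0% = biofilm with clotrimazole alone and 100% = kill control; retested singly at about 60 µM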
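Test system: C. albicans biofilms. Buffer or medium: RPMI/MOPS medium, pH 7.0. Timing: 48 h compound exposure at 37 °C. Technique: Alamar Blue fluorescence. Evaluation: percent inhibition of biofilm viability.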
* marks the source's active call; other numbers are inactive results. An excerpt. The share of hits here may be higher or lower than overall.

`CCOC(=O)Cn1nc2sc3ccccc3n2c(=O)c1=O` gave Biofilm kill mix 17.6.
Screening COc1cccc(NC(=S)N(CCc2c(C)[nH]c3ccc(C)cc23)Cc2cccs2)c1 returned Biofilm kill mix 11.0.
For CCOC(=O)c1ccc(NC(=O)CC2S/C(=N/N=C3/NC(=O)CS3)NC2=O)cc1 (stereo not drawn) the results were Biofilm kill mix 8.4.
For CCCOC(=O)c1ccc(NC(=O)C2C3CCC(C3)C2C(=O)O)cc1 (stereo not drawn) the results were Biofilm kill mix 2.1.
Screening c1coc(CN2CNc3nc4ccccc4n3C2)c1 returned Biofilm kill mix 28.5.
`CCOC(=O)C1=C(C)N(CC)C(=S)NC1c1ccccc1OC(F)F` (stereo not drawn) gave Biofilm kill mix 17.4.
Screening CCOc1ccc(N=C2Sc3nc4ccc(C)cc4cc3CN2CCOC)cc1 returned Biofilm kill mix 14.6.
Screening CN(C(=O)COC(=O)c1ccccc1NC(=O)c1ccco1)C1CCS(=O)(=O)C1 (stereo not drawn) returned Biofilm kill mix 8.0.
CCOc1ccc(CNCc2ccc(C(=O)O)cc2)cc1OC was read as Biofilm kill mix 15.4.
O=C(CSCc1ccc(Cl)cc1)NN=C1CCCC1 was read as Biofilm kill mix 20.6.
Cn1c(CNC(=O)c2cccs2)nnc1SCC(=O)Nc1ccc(Cl)cc1 was read as Biofilm kill mix 17.6.
Screening O=C(CSc1ncccn1)Nc1ncc(C(F)(F)F)cc1Cl returned Biofilm kill mix 7.6.
`O=C(NCc1ccccn1)c1n[nH]c(=O)c2ccccc12` gave Biofilm kill mix 16.9.
O=C(Nc1ccc(O)cc1)/C(=C\c1ccncc1)NC(=O)c1ccccc1 was read as Biofilm kill mix 16.2.
Cc1cc(CNC(=O)C(C)n2nc(C)c([N+](=O)[O-])c2C)c2ccccc2n1 (stereo not drawn) was read as Biofilm kill mix 10.2.
Screening Cc1cc([N+](=O)[O-])ccc1NC(=O)C1CCCO1 (stereo not drawn) returned Biofilm kill mix 8.0.
`O=S(=O)(Nc1nc2ccccc2nc1NCC1CCCO1)c1ccccc1` (stereo not drawn) gave Biofilm kill mix 15.3.
Fc1ccc(-c2csc3ncnc(N4CCc5ccccc5C4)c23)cc1 was read as Biofilm kill mix 5.6.
O=C(CNC(=O)C(c1ccccc1)c1ccccc1)N/N=C/c1cccnc1 was read as Biofilm kill mix 3.6.
CC1CN(c2ccc(S(=O)(=O)N3CCCC3)cn2)CC(C)O1 (stereo not drawn) was read as Biofilm kill mix 9.2.

Entries listed so far that have an aryl methoxy group, in the order listed:
Screening COc1cccc(NC(=S)N(CCc2c(C)[nH]c3ccc(C)cc23)Cc2cccs2)c1 returned Biofilm kill mix 11.0.
CCOc1ccc(CNCc2ccc(C(=O)O)cc2)cc1OC was read as Biofilm kill mix 15.4.

Returning to the listing with the 2 entries that preceded the break.
O=C(CNC(=O)C(c1ccccc1)c1ccccc1)N/N=C/c1cccnc1 was read as Biofilm kill mix 3.6.
CC1CN(c2ccc(S(=O)(=O)N3CCCC3)cn2)CC(C)O1 (stereo not drawn) was read as Biofilm kill mix 9.2.
`Cc1cccc(/C=N/n2c(-c3cc(-c4ccccc4)n[nH]3)n[nH]c2=S)c1` gave Biofilm kill mix 1.0.
Screening Cc1ccc(C2(CCNS(=O)(=O)c3ccc(C)cc3)CCOC(C(C)C)C2)cc1 (stereo not drawn) returned Biofilm kill mix 17.0.
For CCOc1ccc(N=C(NC#N)SCC)cc1 the results were Biofilm kill mix 10.2.
`COc1ccc(-n2cc(CNCCc3cnc[nH]3)c(-c3cccc(F)c3)n2)cc1` gave Biofilm kill mix 10.2.
Screening Cc1cccc(-c2ncc(S(=O)(=O)C(C)(C)C)c(N)n2)c1 returned Biofilm kill mix 15.6.
For O=C(Cc1ccccc1)Nc1ccccc1Oc1ccccc1 the results were Biofilm kill mix 7.0.
For O=C(NC1CCCCCCC1)C1c2ccccc2C(=O)N1Cc1cccs1 (stereo not drawn) the results were Biofilm kill mix 16.3.
`CCOC(=O)c1sc(NC(=O)CSc2n[nH]c(C)n2)nc1C` gave Biofilm kill mix 14.8.
For CCCCCCCN(C(=O)CCl)c1cccc(C)c1 the results were Biofilm kill mix 6.1.
CCOc1ccc(C(C)NC(=O)Cc2ccccc2)cc1OCC (stereo not drawn) was read as Biofilm kill mix 4.5.
Cc1ccc2nc(-c3ccncc3)cc(C(=O)Nc3ccc(OC(F)F)cc3)c2c1 was read as Biofilm kill mix 12.2.
`COCCCNC(=O)CSc1nc2c(sc3ccccc32)c(=O)n1CCCC(=O)NCC1CCCO1` (stereo not drawn) gave Biofilm kill mix 17.8.
Screening COc1ccc(CN(CC2CCC(C(=O)O)CC2)C(=S)Nc2cc(C)cc(C)c2)cc1 (stereo not drawn) returned Biofilm kill mix 11.2.
Screening O=C(C1=C[C@@H](c2coc3ccccc3c2=O)C[C@@H](OCc2ccc(CO)cc2)O1)N1CCN(Cc2ccccc2)CC1 returned Biofilm kill mix 19.6.
CCC(=O)N/N=C/c1ccc(OS(=O)(=O)c2ccccc2)cc1 was read as Biofilm kill mix 12.6.
Cc1ccc2c(Cl)cc(Cl)c(OCC(=O)O)c2n1 was read as Biofilm kill mix 15.2.
Screening COc1ccc(/C=N/Nc2nc(N3CCCCC3)nc(N3CCCCC3)n2)cc1[N+](=O)[O-] returned Biofilm kill mix -1.8.
Screening CN(C)S(=O)(=O)c1cccc(NC(=O)COC(=O)c2ccc3c(c2)OCO3)c1 returned Biofilm kill mix 4.0.
CC(=O)Nc1ccc(Nc2nc(C)c([N+](=O)[O-])c(Nc3ccc(NC(C)=O)cc3)n2)cc1 was read as Biofilm kill mix 17.1.
Cn1c(C(=O)O)cnc1Sc1ncc(C(F)(F)F)cc1Cl was read as Biofilm kill mix 13.9.
For Cc1cccc(C)c1NC(=S)NC1CCCCC1 the results were Biofilm kill mix 8.7.
`CC(=O)Nc1nc(C)c(Oc2ccc(C)cc2)c(=O)[nH]1` gave Biofilm kill mix -3.0.
Screening O=C(N/N=C1\C2CN3CCN(C2)CC1(c1ccccc1)C3)c1ccc(F)cc1 returned Biofilm kill mix 3.8.
Screening Cc1nnn(C23CC4CC(CC(CC(=O)Nc5ccc(C)c(Cl)c5)(C4)C2)C3)n1 returned Biofilm kill mix 2.9.
O=C1CCC/C(=N/NC(=O)c2ccc(CN3c4cccc5cccc(c45)S3(=O)=O)cc2)C1 was read as Biofilm kill mix 15.1.
`Cc1ccc(/C=N/NC(=O)c2ccccn2)o1` gave Biofilm kill mix 3.7.
COC(=O)c1ccccc1NC(=O)C12CC3CC(C1)CC(n1cnc(Cl)n1)(C3)C2 was read as Biofilm kill mix 8.1.
For CC(c1cccs1)N(Cc1ccco1)C(=S)Nc1ccc(F)c(Cl)c1 (stereo not drawn) the results were Biofilm kill mix 20.1.
`O=C(c1ccccn1)C1CCCN(Cc2cn[nH]c2-c2cc3ccccc3o2)C1` (stereo not drawn) gave Biofilm kill mix 0.4.
For Fc1ccc(NC(=S)Nc2ccc(Br)cc2)cc1 the results were Biofilm kill mix 8.3.
COc1ccc(C/C(N)=N/OC(=O)c2ccco2)cc1OC was read as Biofilm kill mix 22.8.
Cc1ccc(C)c(S(=O)(=O)N/N=C/c2ccc(N3CCOCC3)cc2)c1 was read as Biofilm kill mix 21.3.
Screening COCc1ccc(CN2CCC(CO)(CC3CCCCO3)CC2)o1 (stereo not drawn) returned Biofilm kill mix 29.1.
Screening CCOC(=O)c1c(C)oc2c1c(C=NCCO)c(O)c1ccccc12 returned Biofilm kill mix 3.2.
For Cc1c2cnn(-c3ccccc3)c(=O)c2c(C)n1CCCC(=O)N1CCN(C2CCCCC2)CC1 the results were Biofilm kill mix 15.9.
Screening CCC1(C(=O)c2ccccc2)C(c2ccc([N+](=O)[O-])cc2)C1(C(=O)OC)C(=O)OC (stereo not drawn) returned Biofilm kill mix 17.2.
CCOC(=O)C1CCCN(/C=C2\SC(=S)N(CC)C2=O)C1 (stereo not drawn) was read as Biofilm kill mix 24.4.
O=C(NCc1ccco1)c1ccc(-c2csnn2)cc1 was read as Biofilm kill mix 3.4.
CC(C)CCc1noc(CN(C)CC2CCN(Cc3ccccc3)CC2)n1 was read as Biofilm kill mix 0.6.
C#Cc1ccc([C@H]2C=C(C(=O)O)O[C@@H](OCc3ccc(CO)cc3)C2)cc1 was read as Biofilm kill mix 21.0.
For Cc1cc(C)c2c(c1)/C(=N/NC(=O)c1ccc(O)cc1)CCC2 the results were Biofilm kill mix 12.6.
For c1ccc(CSc2ccc(-c3ccccn3)nn2)cc1 the results were Biofilm kill mix 24.8.
For CC(C)Cc1cc(C(=O)N2CCCC(CCC(=O)N(C)CCc3ccccn3)C2)no1 (stereo not drawn) the results were Biofilm kill mix 7.5.
`O=C(Nc1ccccc1)NC1CCN(Cc2c(F)cccc2Cl)CC1` gave Biofilm kill mix 17.3.
COc1ccc(C(=O)Cc2nnc(C)s2)cc1 was read as Biofilm kill mix 4.2.
`O=C(CN1CCN(Cc2ccc(Cl)cc2)CC1)N/N=C/C=C/c1ccccc1[N+](=O)[O-]` gave Biofilm kill mix 10.7.
`CCn1c(SCC(=O)Nc2c(C)n(C)n(-c3ccccc3)c2=O)nc2c1c(=O)n(C)c(=O)n2C` gave Biofilm kill mix -6.1.
Screening O=C(CCN1C(=O)c2ccccc2C1=O)Nc1cccc(S(=O)(=O)NC2=NCCC2)c1 returned Biofilm kill mix 16.0.
CC(C)(C)C(=O)N1CCn2c1nc1ccccc12 was read as Biofilm kill mix 7.6.
`Cn1cc(Cl)c(C(=O)OCC(=O)Nc2nc(-c3ccc(Br)cc3)cs2)n1` gave Biofilm kill mix 15.6.
COc1cc(/C=C/C(=O)OCC(=O)NC2CCS(=O)(=O)C2)ccc1O (stereo not drawn) was read as Biofilm kill mix 4.2.
CCOc1ccc(CC(=O)NNC(=O)/C=C/C(=O)O)cc1 was read as Biofilm kill mix 17.6.
Screening O=c1[nH]c(=O)n(C2CCCO2)cc1F (stereo not drawn) returned Biofilm kill mix 15.8.
For Cc1cc(NC(=O)Nc2cccc(C(F)(F)F)c2)n(C)n1 the results were Biofilm kill mix 2.0.
Screening CCOC(=O)CN1CCC(c2ccccc2)CC1 returned Biofilm kill mix 13.7.
`COc1cccc(CN2CCC(N(CCc3ccccc3)Cc3ccccc3)CC2)c1OC` gave Biofilm kill mix -5.9.
`O=C(N/N=C/c1cccc2nccnc12)c1ccccc1O` gave Biofilm kill mix 21.6.
`O=C(CN1CCSC1=NCc1ccccc1)c1ccccc1` gave Biofilm kill mix 23.9.
`Cc1cnc([N+](=O)[O-])n1CCOC(=O)NC(=O)c1c(F)cccc1F` gave Biofilm kill mix 25.1.
CCOC(=O)Cc1c(C)nc2c(-c3ccc(Cl)cc3)cnn2c1C was read as Biofilm kill mix 12.9.

Four compounds picked at random from the list so far:
`Cc1cnc([N+](=O)[O-])n1CCOC(=O)NC(=O)c1c(F)cccc1F` gave Biofilm kill mix 25.1.
Screening O=c1[nH]c(=O)n(C2CCCO2)cc1F (stereo not drawn) returned Biofilm kill mix 15.8.
`O=C(N/N=C/c1cccc2nccnc12)c1ccccc1O` gave Biofilm kill mix 21.6.
For CC(C)Cc1cc(C(=O)N2CCCC(CCC(=O)N(C)CCc3ccccn3)C2)no1 (stereo not drawn) the results were Biofilm kill mix 7.5.

Next compounds
Screening CSc1nccc(-c2sc(SC)c(C#N)c2-c2ccccc2)n1 returned Biofilm kill mix 14.1.
CCCN1C(=O)/C(=C/c2ccc(N3CCOCC3)cc2)NC1=S was read as Biofilm kill mix 8.3.
COc1ccccc1-n1c(SCC(=O)N2CCOCC2)nc2cccnc21 was read as Biofilm kill mix 9.5.
`S=C1NCCOCCOCCNC(=S)N2CCOCCOCCN1CCOCCOCC2` gave Biofilm kill mix 19.5.
Screening COC(=O)c1ccc(NC(=S)Nc2ccc(O)cc2)cc1 returned Biofilm kill mix 5.0.
O=C(c1cc(S(=O)(=O)N2CCC3(CC2)OCCO3)ccc1F)N1CCCCC1 was read as Biofilm kill mix 20.7.
`COc1ccccc1C(=O)Oc1cc(C)[nH]c(=O)c1[N+](=O)[O-]` gave Biofilm kill mix -8.2.
Screening CC(=O)Nc1c(O)nc(SC/C=C/CSc2nc(O)c(NC(C)=O)c(=O)[nH]2)[nH]c1=O returned Biofilm kill mix 0.1.
`CN(C)c1ccc(/C=N/NC(=O)c2ccccc2Cl)cc1` gave Biofilm kill mix 20.3.
Cc1cc2cc(CNC(=S)NC3CCCCC3)ccc2[nH]1 was read as Biofilm kill mix 14.9.
Screening Cn1c(=O)c2[nH]c(-c3ccccc3)c(O)c2n(C)c1=O returned Biofilm kill mix 22.5.
CCN(CC)CCNC(=S)Nc1ccc2nc(N3CCCC3)cc(C)c2c1 was read as Biofilm kill mix 11.1.
`CCNc1nc(OC)nc(SCC(=O)Nc2ccccc2)n1` gave Biofilm kill mix 11.0.
Fc1cnc(N2CCN(c3ccccc3)CC2)nc1N1CCN(c2ccccc2)CC1 was read as Biofilm kill mix 4.0.
For Cc1ccc(-c2cc(C(=O)NCc3cn(C)nc3C)c3cc(Br)ccc3n2)cc1 the results were Biofilm kill mix 7.2.
Screening O=C1CSC(c2cccnc2)N1Cc1cccnc1 (stereo not drawn) returned Biofilm kill mix 12.8.
O=c1[nH]c(Cc2ccccn2)nc2scc(-c3ccc(Cl)cc3)c12 was read as Biofilm kill mix 11.3.
`CC(=O)Nc1ccc(NC(=O)Cc2sc(-c3cccnc3)nc2-c2ccc(C)cc2)cc1` gave Biofilm kill mix 22.7.
Screening O=C(COC(=O)c1ccc(O)cc1)NCC1CCCO1 (stereo not drawn) returned Biofilm kill mix 13.6.
